Source: PubChem BioAssay
Rango release inh – prevents RanGTP from dissociating the Rango-importin beta complex; Biochemical FRET Rango-importin beta, RanGTP-induced dissociation; Potency, µM (highest dose often 46.1 µM), for the others: at the highest dose activity change, negative = inhibition; 0.071% of 340,000 active; AID 540253; active means falling FRET ratio curve, often poorly fitted, with flat reads before Ran was added; inconclusive means other falling curves, or compound fluorescence or quenching; inactive means flat or rising ratio curve;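 note: potency is the fitted concentration of half-maximal effect; % of control where 0% means no effect; nearly all actives have a fitted effect of over 45% in size; -100% = wells without RanGTP and RCC1; the record marks most hits as doubtful in a second field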
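Quantitative HTS using a FRET biosensor: 0.1 uM Rango, 0.25 uM importin beta, 0.6 uM Ran, 2 mM GTP, 0.2 uM RCC1 final, PBS with DTT, Tween-20 and BSA. Post-read taken 45 min after Ran addition.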
Rango complex inh – inhibitors of Rango-importin beta complex formation; Potency, µM (top dose mostly 92.2 µM), for inactives: at the top dose inhibition of complex formation; 0.031% of 340,000 active; Rango CFP/YFP FRET sensor + importin beta, 45 min; active = rising FRET ratio curve, often small or poorly fitted; inconclusive = mostly compound fluorescence or quenching in the first reads; inactive = flat curves in all reads;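 note: potency is the fitted concentration of half-maximal effect; 0% = DMSO wells and 100% = buffer wells lacking importin beta; nearly all actives have a fitted effect of over 15% in size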
Target sequence (Q14974 whole entry, looked up): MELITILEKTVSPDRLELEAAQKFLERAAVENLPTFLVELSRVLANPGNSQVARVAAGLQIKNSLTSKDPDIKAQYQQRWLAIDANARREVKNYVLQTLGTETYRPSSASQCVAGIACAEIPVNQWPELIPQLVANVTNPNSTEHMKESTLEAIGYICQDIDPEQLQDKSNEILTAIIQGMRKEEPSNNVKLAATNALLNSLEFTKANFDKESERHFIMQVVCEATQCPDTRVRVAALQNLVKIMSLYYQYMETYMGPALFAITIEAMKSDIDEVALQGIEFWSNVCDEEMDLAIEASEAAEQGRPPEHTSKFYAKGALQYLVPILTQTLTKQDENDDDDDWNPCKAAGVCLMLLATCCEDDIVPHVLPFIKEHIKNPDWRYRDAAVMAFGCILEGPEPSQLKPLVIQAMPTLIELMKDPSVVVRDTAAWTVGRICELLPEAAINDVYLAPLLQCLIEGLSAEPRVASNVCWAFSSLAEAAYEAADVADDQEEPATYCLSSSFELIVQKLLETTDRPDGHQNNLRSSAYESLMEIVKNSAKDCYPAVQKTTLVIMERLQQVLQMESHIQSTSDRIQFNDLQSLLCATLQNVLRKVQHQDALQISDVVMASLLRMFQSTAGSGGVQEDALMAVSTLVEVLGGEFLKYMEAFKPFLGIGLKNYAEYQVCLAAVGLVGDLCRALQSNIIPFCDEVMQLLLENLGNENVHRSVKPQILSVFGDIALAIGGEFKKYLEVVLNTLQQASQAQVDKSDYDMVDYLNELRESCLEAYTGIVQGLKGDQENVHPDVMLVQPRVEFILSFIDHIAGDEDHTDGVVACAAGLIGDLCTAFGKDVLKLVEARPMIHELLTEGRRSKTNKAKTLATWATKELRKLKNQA
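FRET biosensor Rango (snurportin 1 IBB between N-terminal EYFP and C-terminal Cerulean), 50 nM in PBS/1 mM DTT/0.02% Tween-20/0.1% BSA, preincubated 5 min RT with compound; 0.125 microM importin beta added, 45 min RT, CFP/YFP FRET ratio read.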
GLA inh pH 4.5 – alpha-galactosidase A (human) inhibition, pH 4.5 | purified enzyme, 4-MU-alpha-Gal fluorescence, pH 4.5 | activity change, negative = inhibition, % at 105 µM | 230,000 tested, under 10 active; inconclusive = small, poorly fitted or top-dose-only inhibition, or a rising curve; inactive = flat fitted curve, though single readings scatter; no compound was filed as active;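 note: 0% = full activity with enzyme and -100% = basal without enzyme; dose as in the result columns while the protocol names 77 µM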
miR-21 reporter – miR-21 reporter, rising signal | HeLa miR-21 FLuc reporter, luciferase, 48 h | Potency, µM (doses to about 38.3 µM), inactives show top-dose reporter change, positive = more light | 340,000 tested, under 10 active; active = well fitted rising curve with a large enough effect; inconclusive = small, poorly fitted or top-dose-only effect; inactive = no such curve, though single readings can be large or run the other way;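 note: % of control where 0% means no effect; miR-21 action dims this reporter so a rising signal means less miR-21 action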
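HeLa cells endogenously expressing miR-21, stably carrying CMV-driven firefly luciferase with a downstream miR-21 binding site, 2000 cells/well. Titrations up to approximately 40 uM, 48 hours; luciferase luminescence read.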
Active calls of the source: *; ? = inconclusive; · = no result given; & = joins results of further samples; [ ] = dose if it differs, or a comment. This is a subset (hit frequency here may not be typical).

Results follow in this order: Rango release inh	Rango complex inh	GLA inh pH 4.5	miR-21 reporter
1	Cc1cc(=O)[nH]c(SCC(=O)NC2CCCCCCC2)n1
  5%	2.0%	·	·
2	COc1ccc(C2C(C(=O)c3cccs3)=C(O)C(=O)N2Cc2cccnc2)cc1OC (stereo unspecified)
  0%	0.9%	-4	-58%
3	O=C(CSC1=NCCS1)N1CCOCC1
  5%	5.8%	8	-1%
4	O=C(Cc1csc(-c2cccc(Cl)c2)n1)Nc1cccc(S(=O)(=O)NC2=NCCC2)c1
  12%	-2.6%	·	·
5	COCCCNC(=O)Cn1cc(/C=C(\C#N)C(=O)N2CCN(c3ccccc3)CC2)c2ccccc21
  -16%	?	-6	-1%
6	CCN(CC)CC(=O)c1c[nH]c2ccc(OC)cc12
  7%	?	-5	-19%
7	CC(=O)C[C@H](O)CC(=O)[C@H]1OC(=O)[C@@H](C)C/C=C\Cc2ccccc21
  2%	-2.8%	·	·
8	CCC(C(=O)NC1C(=O)N2C(C(=O)O)=C(CSc3nnc(C)s3)CSC12)c1ccccc1 (stereo unspecified)
  17%	-0.2%	·	·
9	CCOc1ccc(-c2nnc(SCC(=O)N3CCNC3=O)o2)cc1
  12%	-0.6%	·	·
10	COC(=O)c1ccc(C2=NOC(C)(c3nnc(-c4cccc(Cl)c4)o3)C2)cc1 (stereo unspecified)
  0%	0.1%	·	·
11	O=C(Cc1ccc([N+](=O)[O-])cc1)Nc1ccc(C(=O)N2CCOCC2)cc1
  -10%	-3.8%	·	3%
12	NC(=O)C1CNc2ccccc2O1 (stereo unspecified)
  -18%	1.6%	-4	-3%
13	COC(=O)c1ccc(CNC(=O)c2ccc(COc3ccccc3)cc2)cc1
  -1%	-6.6%	1	-16%
14	CSc1cccc(NS(=O)(=O)c2ccc3c(c2)CCN3C(C)=O)c1
  -9%	0.0%	·	26%
15	CCn1c(C)nc2cc(C(=O)n3cc(C(=O)c4cc(F)ccc4O)cn3)ccc21
  ·	·	-1	-2%
16	O=[N+]([O-])c1ccc(Cl)c(/C=N/N2CCN(C3c4ccccc4-c4ccccc43)CC2)c1
  4%	0.8%	-2	-2%
17	CC(C)(C=O)Cc1cc(C(C)(C)C)c(O)c(C(C)(C)C)c1
  -17%	5.0%	-9&-7	·
18	C=C1C(O)C[C@@H](C(C)C)N(CC(C)C)S1(=O)=O (stereo partly specified)
  2%	-0.8%	·	·
19	S=C(Nc1ccc(Br)cc1)N1CCCC1
  -5%	0.6%	-5	-49%
20	COc1cc(CN2CCC(C(=O)NCC(C)(C)CN(C)C)CC2)ccc1OCc1ccccc1
  13%	0.1%	·	-29%

The final 4 entries of the section before open the next one:
Results follow in this order: Rango release inh	Rango complex inh	GLA inh pH 4.5	miR-21 reporter
17	CC(C)(C=O)Cc1cc(C(C)(C)C)c(O)c(C(C)(C)C)c1
  -17%	5.0%	-9&-7	·
18	C=C1C(O)C[C@@H](C(C)C)N(CC(C)C)S1(=O)=O (stereo partly specified)
  2%	-0.8%	·	·
19	S=C(Nc1ccc(Br)cc1)N1CCCC1
  -5%	0.6%	-5	-49%
20	COc1cc(CN2CCC(C(=O)NCC(C)(C)CN(C)C)CC2)ccc1OCc1ccccc1
  13%	0.1%	·	-29%
21	CCOC(=O)c1[nH]c(C)c(C(=O)NCc2ccc(C)cc2)c1C
  4%	-1.7%	0	-1%
22	COc1ccc(OC)c(NC(=O)Cc2nn(C)c(=O)c3ccccc23)c1
  0%	-0.7%	3	14%
23	Cc1cc(C(=O)Nc2cccc3cccnc23)ccc1[N+](=O)[O-]
  -13%	-2.6%	1	-21%
24	Cc1ccc2ncnc(Oc3ncccc3NC(=O)C(C)(C)C)c2c1
  -3%	2.0%	-26	1%
25	NS(=O)(=O)c1ccc(NC2=CC(c3ccc([N+](=O)[O-])cc3)N(c3ccc(S(N)(=O)=O)cc3)C2=O)cc1 (stereo unspecified)
  4%	-0.7%	-8	-3%
26	Cc1nc(Nc2ccccc2O)c2oc3ccccc3c2n1
  9%	1.1%	·	0%
27	CCC1(c2ccccc2)NC(=O)N(CC(=O)N(C)CC(=O)Nc2ccc(F)c(F)c2F)C1=O (stereo unspecified)
  1%	?	·	·
28	CCCCn1c(N)c(N(CCC(C)C)C(=O)CSc2nncn2-c2ccccc2)c(=O)[nH]c1=O
  -17%	-1.1%	·	·
29	COc1ccc(N2CCN(c3ccnc4cc(Cl)ccc34)CC2)cc1
  4%	0.1%	·	0%
30	CC[C@]12c3[nH]c4ccc(OC)cc4c3CCN1C(=O)C(CC(=O)NCCN1CCOCC1)C[C@@H]2C(=O)N1CCN(C(=O)c2ccco2)CC1 (stereo partly specified)
  12%	-1.8%	·	·
31	O=C(CSc1nnc2scc(-c3ccc(F)cc3)n12)NCc1ccco1
  5%	1.2%	7	-4%
32	Cc1cc(NC(=S)N(Cc2ccc(Br)cc2)Cc2ccc(C(=O)O)cc2)ccc1Cl
  1%	-1.8%	8	6%
33	CN(CC#CC1(O)c2ccccc2-c2ccccc21)Cc1ccccc1
  39%	-2.5%	-8	-16%
34	CC(=O)Nc1cccc(-c2nc3ccccc3c(=O)o2)c1
  3%	2.6%	-13	-7%
35	CCC(C)(C)n1nnnc1C(c1cc2cc(C)cc(C)c2[nH]c1=O)N1CCN(Cc2ccc3c(c2)OCO3)CC1 (stereo unspecified)
  -9%	0.3%	4	-2%
36	O=c1[nH]cc([N+](=O)[O-])cc1Br
  6%	-1.4%	-8	-4%
37	CC1(C)CC(=O)C(C(=O)/C=C/NCCc2ccccc2)C(=O)C1
  -20%	-1.2%	10	13%
38	COc1ccc(CNC(=O)c2c(C)cc(=O)oc2C)cc1OC
  -22%	0.4%	-2	0%
39	COc1c[nH]n(C2CCCCC2)c(=O)c1=O
  11%	0.9%	2	1%
40	O=C(CN(CC1CCCO1)C(=O)CNS(=O)(=O)c1ccc(Cl)cc1)NCCc1ccccc1 (stereo unspecified)
  -1%	-2.4%	-4	0%
41	CCCCCCc1cc2cc(-c3nnc(-c4ccccc4)o3)c(=O)oc2cc1O
  ?	?	-20	1%
42	O=C(Cn1nc(C(=O)O)c2ccccc2c1=O)Nc1ccc(Cl)c(S(=O)(=O)N2CCOCC2)c1
  -13%	1.5%	·	·
43	CN(CCO)C(=O)c1c(NC(=O)c2ccccc2)sc2c1CCCC2
  6%	5.1%	·	-2%
44	[N-]=C=C1C(=S)NC(=O)[C@H]([n+]2ccccc2)[C@H]1c1ccc(Cl)cc1
  ?	-1.8%	-7	-1%
45	COc1ccccc1C(CNC(=O)C(CCSC)NS(=O)(=O)c1ccccc1F)N1CCCC1 (stereo unspecified)
  -1%	-2.0%	·	·
46	Cc1cccc(C(=O)OCc2cc3ccccc3[nH]c2=O)c1
  -7%	2.4%	1	0%
47	CCOC(=O)c1sc2nc3c(SCC(=O)O)cc(C(=O)c4ccccc4O)cn3c(=O)c2c1C
  ?	?	-8	-2%
48	CN1C(C(=O)Nc2ncccn2)=C(O)c2ccccc2S1(=O)=O
  -11%	-1.6%	·	-1%
49	Clc1ccc(-n2ncc3c(NCCCn4ccnc4)ncnc32)cc1
  -19%	-2.7%	-6	-41%
50	CC1CCC(NC(=O)c2cccc(S(=O)(=O)N3CCN(C)CC3)c2)CC1 (stereo unspecified)
  -4%	4.6%	·	·
51	CC(=O)NC(c1ccccc1)c1nc2ccccc2[nH]1 (stereo unspecified)
  -12%	0.7%	-13	-12%
52	COc1ccc(C2=C/C(=C/c3cccnc3)C(=O)O2)cc1OC
  ?	?	2	-3%
53	COc1ccc(NC(=O)Nc2nc(C)cc(C)n2)c(OC)c1
  -9%	-0.9%	-1	11%
54	CN1C(=O)C2(CCCCC2)C1c1ccccc1 (stereo unspecified)
  9%	0.5%	·	·
55	CCc1ccc2c(CN(C)Cc3ccc(OC(F)F)c(OC)c3)cc(=O)oc2c1
  -1%	0.5%	·	-8%
56	O=C(NCC1CCN(c2ccc(S(=O)(=O)N3CCOCC3)cc2)CC1)Nc1ccccc1F
  1%	-4.0%	·	10%
57	CC12CCC(=O)N1C(C(=O)NNC(=O)COc1ccccc1Cl)CS2 (stereo unspecified)
  7%	3.8%	·	·
58	CCN(c1ccccc1)S(=O)(=O)c1ccc2c(c1)N(C(C)=O)CCO2
  24%	0.6%	·	0%
59	O=C(NC(=S)N1CCCCCC1)C1CC1
  4%	-2.2%	5	-5%
60	CCOc1ccc(/C=C2\SC(=S)N(CC(=O)Nc3ccccn3)C2=O)cc1
  3%	1.5%	·	-11%
61	CCn1c(C)c(C)c2cc(C(=O)NCCN3CCCCCC3)ccc21
  0%	-2.9%	·	-4%
62	C[C@H](CO)N1C[C@H](C)[C@@H](CN(C)Cc2ccc(C(=O)O)cc2)Oc2c(NC(=O)c3ccncc3)cccc2C1=O
  2%	5.1%	·	·
63	CCN1C(=O)N[C@@H](c2cccs2)C(C(C)=O)=C1C
  16%	-5.1%	-6&-1	4%
64	O=C(CSc1nnc(-c2cccnc2)n1Cc1ccco1)Nc1nc(-c2ccc(F)cc2)cs1
  -4%	0.0%	1	23%
65	CCCc1nc2ccccc2c(=O)n1/N=C/c1c(C)[nH]n(-c2ccc(C)cc2)c1=O
  -2%	-0.4%	8	2%
66	COc1ccc(CCNC(=O)C2CCCN(c3nc(C)cc(C)n3)C2)cc1 (stereo unspecified)
  -7%	0.4%	7	1%
67	CS(=O)(=O)N(CC(=O)NCC1CCCO1)c1cccc([N+](=O)[O-])c1 (stereo unspecified)
  1%	-0.5%	12	-1%
68	CCc1ccc(/C=C/C(=O)C2C(=O)c3ccccc3C2=O)cc1
  -12%	0.5%	-17	-5%
69	O=[N+]([O-])c1cc(C(F)(F)F)cc([N+](=O)[O-])c1NCCN1CCNCC1
  -3%	-1.4%	·	0%
70	Cn1c(-c2cc3ccccc3oc2=O)nc2ccccc21
  26%	1.3%	2	-49%
71	O=C(COn1nnc2ccccc21)N1CCN(Cc2ccccc2)CC1
  1%	-0.3%	-23[21.1 µM]	-37%
72	Cc1ccc2c(c1)P(=O)(O)c1cc(C)ccc1O2
  11%	-1.8%	·	·
73	O=C(COC(=O)C1CCC1)NCc1ccc(F)cc1
  4%	-1.6%	·	·
74	Cc1cc(C)cc(-n2c(SC(C)C(=O)NCc3ccc4c(c3)OCO4)nc3ccccc3c2=O)c1 (stereo unspecified)
  0%	-0.6%	0	2%
75	CC1(C)C(=O)N(CCN2CCC(C(=O)c3ccc(F)cc3)CC2)c2ccccc21
  -6%	-3.3%	-5	·
76	COc1ccccc1/C=C/C(=O)OCC(=O)NCCC1=CCCCC1
  0%	-2.5%	-3	5%
77	Clc1cc2c(c(Cn3cnc4ccccc43)c1)OCOC2
  24%	0.3%	-4	-17%
78	Cc1ccc(NC(=O)COc2cccc(/C=C3\SC(=S)N(CCC(=O)O)C3=O)c2)cc1Cl
  4%	-2.3%	3	-40%
79	COc1ccc(NC(=S)N(CCc2c(C)[nH]c3ccccc23)Cc2cccnc2)cc1
  0%	-0.2%	-2	-7%
80	Cc1ccc(-n2ncc3c2CC(C)(C)CC3NC(=O)CCc2ccncc2)cc1 (stereo unspecified)
  8%	?	·	-1%

(cont.)
Results follow in this order: Rango release inh	Rango complex inh	GLA inh pH 4.5	miR-21 reporter
81	O=C(NC1CCOCC1)C1CCC(=O)N(Cc2ccc(Cl)cc2)C1 (stereo unspecified)
  -10%	2.1%	·	-3%
82	COc1ccc2[nH]cc(CCNC(=S)NCCc3ccccc3)c2c1
  16%	2.9%	-11	-5%
83	O=C(CSc1ccccc1)Nc1ccc(C(=O)Nc2ccc(O)cc2)cc1
  -4%	-0.3%	2	-23%
84	COc1cc(C(=O)NC2Cc3ccccc3C2)ccc1OC1CCN(C(C)=O)CC1
  -1%	-1.9%	·	-4%
85	O=C(CCc1nnc(CCCc2ccccc2)o1)NCC(F)(F)F
  -17%	-3.1%	-7	-41%
86	O=C(CSCc1ccc(F)cc1)Nc1ccc(F)cc1
  1%	-1.1%	0	-57%
87	CCN(C(=O)c1cc2cc3ccc(C)cc3nc2o1)c1ccc(OC)cc1
  -16%	4.8%	-17	-16%
88	COc1ccc(-c2cc(C(=O)Nc3nc4ccccc4s3)c3ccccc3n2)cc1OC
  3%	?	-7	-13%
89	O=C1CN(C(=O)COC(=O)CCNS(=O)(=O)c2ccc(Cl)cc2)c2ccccc2N1
  2%	1.6%	4	5%
